High-throughput results deposited in PubChem BioAssay by National Center for Advancing Translational Sciences (NCATS).
BLM helicase inh: blocks DNA unwinding by human BLM helicase. Potency, µM (doses to about 56.1 µM), inactives show at the highest dose activity change, negative = inhibition, actives largely listed as inhibitors. 350,000 compounds, 0.2% hits. AID 2528. recombinant BLM DNA unwinding, fluorescence dequenching. P54132;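 further: plate controls were vehicle for no effect and no enzyme for full effect; nearly all actives have a fitted effect of over 35% in size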
POLK inh: blocks human DNA polymerase kappa activity. 400,000 compounds, 0.53% hits. AID 588579. Potency, µM (titrated, usually from 107 µM), without a hit: top-dose activity, negative = inhibition, most hits filed as inhibitors. purified Pol kappa, fluorescent DNA synthesis assay, 10 min; further: on the % scale 0 is the no-effect control and ±100 the full control effect
Target sequence (Q9UBT6 whole entry, looked up): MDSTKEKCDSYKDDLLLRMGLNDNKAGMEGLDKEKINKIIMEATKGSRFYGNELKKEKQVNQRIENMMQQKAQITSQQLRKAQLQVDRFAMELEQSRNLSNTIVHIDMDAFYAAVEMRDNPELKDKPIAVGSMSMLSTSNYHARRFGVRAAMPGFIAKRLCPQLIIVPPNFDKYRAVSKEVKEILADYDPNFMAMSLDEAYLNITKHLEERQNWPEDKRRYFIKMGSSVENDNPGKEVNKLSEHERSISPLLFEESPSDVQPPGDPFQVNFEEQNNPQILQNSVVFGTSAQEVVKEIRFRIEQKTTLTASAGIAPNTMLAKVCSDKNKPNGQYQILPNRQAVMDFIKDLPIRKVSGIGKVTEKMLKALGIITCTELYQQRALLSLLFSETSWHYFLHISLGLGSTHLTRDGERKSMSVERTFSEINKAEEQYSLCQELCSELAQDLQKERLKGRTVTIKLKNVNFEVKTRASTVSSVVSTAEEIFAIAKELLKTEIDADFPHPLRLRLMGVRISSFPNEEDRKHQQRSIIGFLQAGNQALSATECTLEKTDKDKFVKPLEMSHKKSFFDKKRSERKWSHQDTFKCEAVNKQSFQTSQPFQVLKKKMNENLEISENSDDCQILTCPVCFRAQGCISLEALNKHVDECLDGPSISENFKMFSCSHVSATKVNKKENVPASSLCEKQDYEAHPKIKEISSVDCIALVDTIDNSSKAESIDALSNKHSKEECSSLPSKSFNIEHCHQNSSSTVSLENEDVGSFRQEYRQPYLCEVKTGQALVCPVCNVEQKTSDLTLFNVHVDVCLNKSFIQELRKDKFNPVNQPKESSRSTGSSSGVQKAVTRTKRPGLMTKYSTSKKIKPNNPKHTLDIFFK
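Kinetic fluorescence readout at 0 and 10 min followed reaction start with substrate at 50 nM final. Beforehand, enzyme (10 nM Pol kappa) stood 15 min with compound at room temperature; buffer-only wells were negative controls.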
Anesthetic bind: candidate novel general anesthetic via apoferritin binding | P02791 | apoferritin/1-aminoanthracene competitive binding, fluorescence | 350,000 compounds, 0.074% hits | Potency, µM (highest dose often 77.5 µM), inactives show top-dose activity change, negative = displacement, most hits filed as inhibitors | AID 485281; further: on the % scale 0 is the no-effect control and ±100 the full control effect; nearly all actives have a fitted effect of over 20% in size
Target sequence (P02791 2-175 limits assumed): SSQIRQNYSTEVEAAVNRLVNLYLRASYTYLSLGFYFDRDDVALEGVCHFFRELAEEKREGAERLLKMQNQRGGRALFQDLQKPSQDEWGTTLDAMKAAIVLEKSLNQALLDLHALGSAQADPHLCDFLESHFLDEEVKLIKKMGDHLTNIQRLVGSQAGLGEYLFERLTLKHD
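Horse-spleen apoferritin (10 uM) was mixed with 50% saturated 1-aminoanthracene in PBS, exposed to compounds for 10 min at room temperature, and read for fluorescence (ex 380 nm, em 535 nm). Competitive displacement was fitted with a four-parameter Hill equation.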
POLI inh: DNA polymerase iota (human) inhibition; Q9UNA4; AID 588590; 390,000 compounds, 1% hits; Potency, µM (doses to about 115 µM), without a hit: at the top dose activity, negative = inhibition, most hits filed as inhibitors; Pol iota fluorescent replication assay, 10 min
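Pol iota at 10 nM preincubated 15 min with compounds at room temperature; reaction started with fluorescent substrate, 50 nM final. Fluorescence read kinetically at 0 and 10 min; buffer-only wells as negative control.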
The depositor's hits bear a star; ? = inconclusive; nt = not tested or not shown; & = joins results of further samples; [ ] = dose if it differs, or a comment. The call rests on the fitted dose curve; in most records, active means well fitted curve in the direction sought with a large enough effect; inconclusive means small, poorly fitted or top-dose-only effect, or another doubt; inactive means no such curve, though single readings can be large; an effect the other way counts as inactive or inconclusive. Potency means the concentration at half of the fitted maximal effect. These rows are one share of the data; the hit share may differ from the screen's.

Each structure is followed by: Anesthetic bind	BLM helicase inh	POLK inh	POLI inh
> COC(=O)[C@H](CC(C)C)NS(=O)(=O)N(Cc1ccccc1)[C@@H](CC(C)C)C(=O)OC
→ nt	nt	-5%&-14%	7%&-19%
> CCOc1ccc(/C=N/n2c(C)nnc2C)cc1OC
→ -4%	-7%	2%	84%[activator]
> Cn1c(CCNC(=O)c2ccccc2F)nnc1SCC(=O)Nc1nncs1
→ 7%	-1%	-5%	78%[activator]
> CCN(CC)C(=O)c1[nH]cnc1C(=O)N[C@@H](C)C(=O)OC(C)(C)C
→ -5%	0%	-4%	12%
> CC(=O)Nc1ccc(-c2csc(-c3cccnc3)n2)cc1
→ 2%	-5%	6%	11%
> Cc1sc2ncn(CC(=O)NCCCC(=O)N3CCN(c4ncccn4)CC3)c(=O)c2c1C
→ -10%	2%	-5%	?
> O=C(O)c1cccnc1SCC(=O)N1CCCc2ccccc21
→ -9%	-5%	-38%	?
> C[C@H](NC(=O)c1nc[nH]c1C(=O)N[C@H](C)c1ccccc1)C(=O)OC(C)(C)C
→ -2%	-2%	-1%	7%
> CCN(CC)C(=O)CSc1nc2cc(OC)c(OC)cc2c(=O)n1Cc1ccc(Cl)cc1
→ -9%	-7%	-14%	23%
> COc1ccc(-c2nnc(SC)o2)c(OC)c1
→ -5%	-2%	4%	21%
> CC(C)NCC(O)c1ccc(O)c(O)c1 (centres undefined)
→ -5%&-8%	-1%&2%&4%	5%[60.1 µM]	-14%[58.9 µM]
> COCCOc1cc(N)c(Cl)cc1Cl
→ -4%	-3%	-3%	71%[activator]
> Cc1cc(C)c(S(=O)(=O)n2cc(C(C)C(N)C(=O)O)c3ccccc32)c(C)c1 (centres undefined)
→ nt	nt	1%	-29%
> CC(=O)N/C(=C\c1ccccc1)C(=O)OC(C)C(=O)N(C)c1ccccc1 (centres undefined)
→ nt	nt	-9%	71%[activator]
> COc1ccc(-c2c(NCCc3ccccc3)c(=O)c2=O)cc1
→ -8%	-13%	-11%	80%[activator]
> C/C(CC(=O)NCC(C)C)=N\NC(=O)COc1cc(C)c(Br)cc1Br
→ -23%	-2%	-5%	167%[activator]
> CCC/C(O)=C1\C(=O)CC(C)(C)CC1=Nc1cccc([N+](=O)[O-])c1
→ -7%	-6%	-6%	24%
> O=C(OCC(=O)c1ccccc1Br)c1ccccn1
→ -14%	-2%	-7%	?
> COC(=O)c1cc(=O)nc2sc3cc(OC)ccc3n12
→ 22%	2%	-5%	-2%
> CC(C)C[C@H](NC(=O)c1nc[nH]c1C(=O)N1CCNCC1)C(=O)OC(C)(C)C
→ nt	nt	-1%	?
> COc1ccccc1CC(=O)Nc1ccc(-c2noc(COc3ccc(Cl)c(C)c3)n2)cc1
→ -2%	-2%	4%	5%
> C=CCN1CCN(C(=O)c2ccc3c(c2)OCO3)CC1
→ -6%	-2%	7%	-6%
> Cc1cc2c(cc1S(=O)(=O)N(CCO)Cc1ccccc1)OCC(=O)N2
→ -1%	0%	-1%[60.1 µM]	23%
> Cc1nn2c(-c3ccco3)ccnc2c1-c1ccc(F)cc1
→ -7%	-3%	-5%	39%[activator]
> CCc1ccccc1NC(=O)Nc1cc(F)ccc1F
→ -19%	-3%	-6%	17%
> Cc1cccc(C)c1NC(=O)Cn1nc(-c2ccccc2)nc1-c1ccccc1
→ -7%	3%	-11%	9%
> COc1cccc2cc(C(=O)CS(=O)(=O)c3ccc(C)cc3)c(=O)oc12
→ -10%	-6%	-27%	?
> COC(=O)C1=NN(c2ccccc2OC)C2C(=O)N(c3ccccc3OC)C(=O)C12 (centres undefined)
→ -8%	1%	-16%	11%
> CCCNC(=O)COC(=O)c1cc(C)nc2ccccc12
→ -1%	1%	-8%	3%
> C[C@H](NC(=O)c1[nH]cnc1C(=O)Nc1ccc(CNC(=O)OC(C)(C)C)cc1)C(=O)OC(C)(C)C
→ ?	-18%	-31%	23%
> CCOC(=O)c1cc(C#N)c(Oc2cccc(C(F)(F)F)c2)nc1-c1ccccc1
→ -13%	-12%	-14%	13%
> NC(=O)C(c1ccc(Cl)cc1)c1ccc(Sc2ccc(Cl)cc2)nn1 (centres undefined)
→ ?	-22%	-11%	4%
> CC(C)(C)c1cc(C(C)(C)C)c2oc(=O)c(-c3nc4ccc(C(=O)O)cc4[nH]3)cc2c1
→ 161%[activator]	-4%	2%[60.1 µM]	4%
> CC(C)C[C@H](NC(=O)c1nc[nH]c1C(=O)NC1CCNCC1)C(=O)OCc1ccccc1
→ nt	nt	-2%	-13%
> CCOc1cc(C)c(Cl)cc1S(=O)(=O)NCc1ccc2c(c1)OCO2
→ -8%	-7%	-8%	3%
> Cc1cccc(C(=O)N/N=C/c2ccncc2)c1
→ -8%	2%	-3%	14%
> CCCCNc1nc(-c2ccccc2)c(C(=O)OCC)cc1C#N
→ -9%	-9%	-5%	-10%
> COc1ccc(/C=C/C(=O)NC(=S)N2CCN(c3ccccn3)CC2)cc1
→ -15%	-1%	-20%	12%
> CCC(NS(=O)(=O)c1ccc2c(c1)NC(=O)C(C)C(=O)N2)c1cccs1 (centres undefined)
→ -14%	0%	4%	?
> CN1CCN(C(=O)c2ccc3c(c2)NC(=O)/C(=C/c2ccccc2)S3)CC1
→ -19%	2%	13%	40%[activator]
> CC(C)Oc1cccc(C(=O)Nc2ccc(-c3nc4cc(Cl)cc(Cl)c4o3)cc2)c1
→ 3%	-8%	-9%	-3%
> O=C(NC1CCCC1)C1CCN(C(=O)c2ccc(Cl)cc2Cl)CC1
→ -6%	0%	8%	126%[activator]
> CCOC(=O)C1CCN(C(=O)c2ccc3c(c2)NC(=O)/C(=C/c2ccccc2)S3)CC1
→ -8%	-17%	-1%	-7%
> Cc1cc(C)c(C(=O)N2CCCC(CNC(=O)C3(c4ccc(Cl)cc4)CC3)C2)c(=O)[nH]1 (centres undefined)
→ -3%	9%	-10%	13%
> C=CCn1c(C)nnc1SCC(=O)Nc1ccccc1C(=O)NC1CC1
→ nt	nt	-5%	9%
> CCOC(=O)[C@@H](C)NS(=O)(=O)N(Cc1ccccc1)[C@H](C(=O)OC)C(C)C
→ nt	nt	5%&15%	51%&7%[activator]
> COc1ccccc1NC(=O)C(=O)N(c1cccnc1)C(C(=O)NC(C)(C)C)c1ccccc1 (centres undefined)
→ -13%	-3%	-3%	133%[activator]
> CCOC(=O)c1cc(C#N)c(N2CCCC2)nc1-c1ccccc1
→ -13%	-7%	-5%	5%
> COc1ccc(-c2cc(CNC(=O)CN3CCN(C)CC3)on2)cc1
→ -2%	-2%	-7%	6%
> Cc1sc2ncn(CC(=O)NCCCC(=O)N3CCN(c4ccccc4)CC3)c(=O)c2c1C
→ -8%	-3%	-8%	-12%
> CCOC(=O)c1cc(C#N)c(N2CCNCC2)nc1C(F)(F)F
→ -3%	1%	-1%	45%[activator]
> c1ccc2[nH]c(NC3=NCCC3)nc2c1
→ -16%	-4%	-3%	-5%
> Cc1ccc(/C=C2/Sc3ccc(C(=O)N4CCN(c5ccccn5)CC4)cc3NC2=O)cc1
→ -13%	-1%	15%	20%
> CCOC(=O)/C(=N/O)C1=NC(C)(C)Cc2cc(C)c(C)cc21
→ -9%	-3%	-10%	97%[activator]
> C=CCNc1nc(-c2ccccc2)c(C(=O)OCC)cc1C#N
→ -16%	-6%	-10%	-2%
> Cc1nn2c(-c3ccco3)ccnc2c1-c1ccc(Br)cc1
→ -3%	-5%	8%	17%
> CCCCc1c(O)nc2sc3cc(OC)ccc3n2c1=O
→ -9%	-3%	-3%	15%
> CC(C)N(C(=O)c1ccc2nc(-c3ccccc3)c(-c3ccccc3)nc2c1)C(C)C
→ -2%	-11%	-16%	7%
> CC1=C(C(=O)Nc2ccccn2)C(c2cccnc2)n2nnnc2N1 (centres undefined)
→ -5%	1%	1%	-2%
> CCOC(=O)c1c(-c2ccccc2)nnn1-c1nc(OC)nc(N2CCOCC2)n1
→ -15%	-3%	-7%	2%

Next part
Each structure is followed by: Anesthetic bind	BLM helicase inh	POLK inh	POLI inh
> CC(C)[C@H](NC(=O)c1ccccc1)C(=O)OCC(=O)c1ccc2c(c1)NC(=O)CO2
→ ?	-2%	2%	-1%
> CC(=O)c1cccc(NC(=O)Cn2cnc(S(=O)(=O)N3CCC(C)CC3)c2)c1
→ -12%	-1%	10%	-4%
> CCCCCn1ccc(=O)c2c(C(F)(F)F)nccc21
→ -2%	-15%	-9%	-1%
> COc1cccc(/C=N\n2c(C)nnc2C)c1OC
→ -9%	0%	-10%	-4%
> Cc1cccc(NC(=O)Cn2cnc(S(=O)(=O)N3CCCC3)c2)c1C
→ -4%&9%	-3%&-1%	-6%&14%	-14%&-2%
> Cc1nnc(NC(=O)CSc2nnc(CCNC(=O)c3ccccc3F)n2C)s1
→ -9%	1%	-10%	-6%
> O=S(=O)(Nc1ccc(-c2nc3cccnc3s2)cc1)c1cccs1
→ 81%[activator]	-3%	-18%	-12%
> C/C(=N\NC(=O)c1ccc([N+](=O)[O-])cc1)c1c(O)cc(C)oc1=O
→ -10%	-13%	-20%	56%[activator]
> C=CCn1c(SCC(=O)Nc2cccnc2Cl)nnc1-c1ccccc1F
→ -8%	-3%	-7%	1%
> C=CCn1c(Cc2csc(N)n2)nnc1SCC(=O)Nc1ccccc1C(F)(F)F
→ -16%	-1%	-3%	-19%[58.9 µM]
> CCOC(=O)c1cc(C#N)c(Oc2ccccc2)nc1-c1ccccc1
→ -12%	-7%	-9%	9%
> COc1ccc(CCNC(=O)CSc2nc3[nH]ncc3c(=O)n2-c2ccc(C)c(Cl)c2)cc1OC
→ -15%	6%	10%	15%
> Cc1cccc(NC(=O)c2nc[nH]c2C(=O)N[C@@H](C)C(=O)OC(C)(C)C)c1
→ 18µM*	-20%	5%	1%
> CCOC(=O)Cc1csc(SCc2cc(=O)oc3cc(O)ccc23)n1
→ -1%	1%	-13%	-3%
> COc1ccc(C2CC(=O)N3CN(c4ccccc4F)CSC3=C2C#N)cc1OC (centres undefined)
→ -5%	-3%	?	?
> O=C(COC(=O)C1CCCCC1C(=O)N1CCc2ccccc21)NCc1ccco1 (centres undefined)
→ ?	-16%	?	?
> C/C(=N\NC(=O)c1ccc(NS(=O)(=O)c2cccs2)cc1)c1ccc(C(C)(C)C)cc1
→ -11%	-3%	-15%	39%[activator]
> O=C(O)c1ccc(/C=C(\c2nc3ccccc3[nH]2)c2nc3ccccc3s2)cc1
→ -15%	1%	-8%	?
> CC1CCN(S(=O)(=O)c2cn(CC(=O)Nc3ccc(C#N)cc3)cn2)CC1
→ 3%	-1%	-6%	14%
> Cc1ccc(/C=C2/Sc3ccc(C(=O)N4CCN(C)CC4)cc3NC2=O)cc1
→ -4%	4%	-6%	-8%
> O=C(CSc1nc(O)cc(=O)[nH]1)C1CC1
→ -6%	-2%	-23%	8%
> COc1cccc(C2C(C(=O)Nc3cccnc3)=C(C)Nc3nnnn32)c1OC (centres undefined)
→ -7%	0%	-3%	8%
> O=C(C1CCCN(CCCc2ccccc2)C1)N1CCCCC1 (centres undefined)
→ 2%	-9%	-10%	-13%
> CCOC(=O)c1sc2nc3c(SCC(=O)O)cc(C(=O)c4cc(F)ccc4O)cn3c(=O)c2c1C
→ -16%	22µM*	50µM*	?
> CC1C(NC(=O)/C(=N/OC(C)(C)C(=O)O)c2csc(N)n2)C(=O)N1S(=O)(=O)O (centres undefined)
→ 2%	-9%	-6%[60.1 µM]	nt
> O=c1ccn(Cc2ccc(F)cc2)c2ccnc(C(F)(F)F)c12
→ -3%	4%	-7%	223%[activator]

Compounds above that have a thiophene ring, fused or not:
Each structure is followed by: Anesthetic bind	BLM helicase inh	POLK inh	POLI inh
> Cc1sc2ncn(CC(=O)NCCCC(=O)N3CCN(c4ncccn4)CC3)c(=O)c2c1C
→ -10%	2%	-5%	?
> CCC(NS(=O)(=O)c1ccc2c(c1)NC(=O)C(C)C(=O)N2)c1cccs1 (centres undefined)
→ -14%	0%	4%	?
> Cc1sc2ncn(CC(=O)NCCCC(=O)N3CCN(c4ccccc4)CC3)c(=O)c2c1C
→ -8%	-3%	-8%	-12%
> O=S(=O)(Nc1ccc(-c2nc3cccnc3s2)cc1)c1cccs1
→ 81%[activator]	-3%	-18%	-12%
> C/C(=N\NC(=O)c1ccc(NS(=O)(=O)c2cccs2)cc1)c1ccc(C(C)(C)C)cc1
→ -11%	-3%	-15%	39%[activator]
> CCOC(=O)c1sc2nc3c(SCC(=O)O)cc(C(=O)c4cc(F)ccc4O)cn3c(=O)c2c1C
→ -16%	22µM*	50µM*	?
